Assay outcomes as filed in PubChem.
T cruzi repl – T. cruzi replication inhibition. T. cruzi beta-gal in NIH3T3, luminescence, 90 h. inhibition, % (no concentration beside the values). 300,000 compounds, 1.4% hits. AID 1885;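 active = mean inhibition across valid replicates above about 55%, limit read from the data; inconclusive = mean below that limit but half or more replicates reach it; inactive = mean below it, under half of replicates reach it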;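 note: signal also drops with host cell toxicity which is not excluded here; 0% = plate median of DMSO wells and 100% = zero luminescence signal; higher percent means less beta-gal luminescence so fewer parasites; stock transfer was 50 nL into about 50 µL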
Ecoli growth – E. coli growth inhibition. Escherichia coli growth, OD600, 23 h; hits give low values. OD600 absorbance (concentration not given with the values). 330,000 compounds, 0.21% hits. AID 1053175;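 active = OD600 absorbance below the run mean of sample wells minus 3.6 SD, in any replicate, cut at about 0.56 in these data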;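 note: stock transfer was 300 nL into about 60 µL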
Bfl-1 A1 inh – inhibitors of the anti-apoptotic protein A1, read as caspase activation; caspase activation, % (test concentration not listed); 330,000 compounds, 0.066% hits; MEF A1-2A-BIM cells, Caspase-Glo 3/7 luminescence, 3 h; percent of clofoctol response, vehicle zero;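 active = over half of replicate activation scores above 10%, or exactly half above 10 with the replicate mean above 10; inconclusive = replicate mean below 10 yet half the replicates above 10; inactive = over half of replicates below 10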;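 note: wells of about 30 µL received 50 nL stock; many hits fall short of the cut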
UCH37 DUB inh – inhibitors of human deubiquitinating enzyme UCH37; Q9Y5K5; purified proteasome/UCH37, Ub-AMC cleavage fluorescence; 330,000 compounds, 0.33% hits; inhibition, % (concentration not given with the values); AID 588478;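 active = mean of two replicates above 20%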;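 note: 0% = compound-free wells with enzyme and 100% = wells lacking proteasome; stock transfer was 100 nL into about 20 µL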
Target sequence (Q9Y5K5 whole entry, looked up): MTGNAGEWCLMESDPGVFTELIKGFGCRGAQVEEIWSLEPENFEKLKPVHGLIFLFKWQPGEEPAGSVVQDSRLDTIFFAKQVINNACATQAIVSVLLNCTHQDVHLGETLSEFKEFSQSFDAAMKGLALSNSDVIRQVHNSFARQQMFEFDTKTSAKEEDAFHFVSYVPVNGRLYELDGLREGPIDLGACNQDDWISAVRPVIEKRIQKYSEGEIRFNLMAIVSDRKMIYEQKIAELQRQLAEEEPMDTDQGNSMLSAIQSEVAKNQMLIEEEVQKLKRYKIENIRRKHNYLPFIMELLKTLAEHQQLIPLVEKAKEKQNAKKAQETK
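System: Proteasome-associated human UCH37 deubiquitinase; Input: 0.15 nM proteasome in added enzyme buffer; Also added: Ub-AMC substrate from 1 µM stock; Incubation: 30 min compound-proteasome preincubation then 25 min substrate reaction, room temperature; Detection: fluorescence, ex 355 nm, em 460 nm; Read-out: % inhibition of Ub-AMC cleavage fluorescence; Benchmarks: no-proteasome and no-compound wells.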
FGF22 binding – FGF22 (human) thermal shift binding | Q9HCT0 | recombinant FGF22 thermal shift, SYPRO orange fluorescence; percent of sucrose octasulfate shift, DMSO zero | calls only at 9.99 µM | 340,000 compounds, 1.5% hits;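 active = melting point raised past a set limit in the mean and every replicate; inconclusive = no clear call; three in four hits are not shown here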
Target sequence (Q9HCT0 whole entry, looked up): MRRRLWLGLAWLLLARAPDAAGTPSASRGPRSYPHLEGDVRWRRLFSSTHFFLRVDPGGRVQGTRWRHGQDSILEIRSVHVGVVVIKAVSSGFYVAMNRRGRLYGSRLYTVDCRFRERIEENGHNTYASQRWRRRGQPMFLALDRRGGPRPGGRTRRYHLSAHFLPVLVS
MLL AF4-AF9 inh – MLL-AF4/AF9 protein interaction inhibition; AlphaScreen, biotin-AF4 peptide binding to FLAG-AF9; inhibition, % at 10 µM; AID 651704; P42568; 350,000 compounds, 0.47% hits;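 active = every replicate reaching a set inhibition limit, whatever the replicate mean, cut at about 25% in these data; inconclusive = mean inhibition reaches that limit but some replicates miss it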;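 note: 0% = plate neutral control median and 100% = total signal loss; the record names both 10 and 1 µM as test concentration; the first replicate is given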
Target sequence (P42568 whole entry, looked up): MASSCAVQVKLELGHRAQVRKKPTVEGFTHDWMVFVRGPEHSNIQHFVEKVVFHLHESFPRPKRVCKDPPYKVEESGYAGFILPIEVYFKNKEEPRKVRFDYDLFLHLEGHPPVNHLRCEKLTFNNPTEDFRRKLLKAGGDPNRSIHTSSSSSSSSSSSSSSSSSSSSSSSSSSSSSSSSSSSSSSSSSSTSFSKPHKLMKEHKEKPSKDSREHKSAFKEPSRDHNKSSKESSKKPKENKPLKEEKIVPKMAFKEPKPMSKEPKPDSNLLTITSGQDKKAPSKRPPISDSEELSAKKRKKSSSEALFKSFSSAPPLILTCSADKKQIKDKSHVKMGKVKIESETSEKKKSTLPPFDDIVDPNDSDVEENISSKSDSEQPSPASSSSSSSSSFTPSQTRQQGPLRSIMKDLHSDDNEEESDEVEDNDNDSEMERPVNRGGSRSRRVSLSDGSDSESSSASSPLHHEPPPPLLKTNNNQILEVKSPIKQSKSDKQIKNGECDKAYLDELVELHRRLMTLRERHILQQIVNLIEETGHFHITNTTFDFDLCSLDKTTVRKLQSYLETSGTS
Ecoli rRNA inh – inhibitors of bacterial rRNA selective over humanized ribosomes; 350,000 compounds, 1.6% hits; AID 720706; GFP signal change (wild-type ribosome), % (concentration not given with the values); E. coli WT GFP vs humanized-ribosome RFP mutants, fluorescence, 24 h; hits give low values; DMSO median 0, no signal -100;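 active = significant combined selectivity score with lowered wild-type GFP, culture density cut under 30%, mutant RFP and density less affected; inactive = any of these conditions unmet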; note: one replicate is shown; some compounds called inactive have numbers as strong as hits
Beta apoptosis – blocks beta cell apoptosis; INS-1E cytokine-induced death, ATP luminescence, 48 h; percent of positive-control rescue, neutral wells zero; protection from apoptosis, % (test concentration not listed); 300,000 compounds, 0.8% hits; AID 435005;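 active = all replicates at 75% or more, or half of them and the mean; inconclusive = half reach 75% but not the mean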;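 note: 0% = cytokine-treated negative control wells and 100% = positive control rescue; higher means more ATP so stronger rescue from cytokine killing; wells of about 40 µL received 100 nL stock; the first replicate is given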
Ecoli rRNA inh OD600 – further read-out of Ecoli rRNA inh, marked with its call; OD600 change, %; measured here: OD600 growth;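 optical density of the mix in the first replicate; 0 = DMSO median and -100 = no signal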
Ecoli rRNA inh RFP – second read-out of Ecoli rRNA inh, no call of its own (marks repeat the call); RFP signal change, %; measured here: RFP humanized mutant strains;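 first replicate; 0 = DMSO median and -100 = no signal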
Numbers without * were called inactive; i = inactive; ? = inconclusive; . = no result given.

SMILES	T cruzi repl	Ecoli growth	Bfl-1 A1 inh	UCH37 DUB inh	FGF22 binding	MLL AF4-AF9 inh	Ecoli rRNA inh	Ecoli rRNA inh OD600	Ecoli rRNA inh RFP	Beta apoptosis
O=C(CSc1ccc(-c2ccccc2)nn1)N1CCN(c2ccccc2)CC1	-6	0.71	0.4	-0.8	i	5.3	8	10	-3.0	-9
COc1ccccc1NS(=O)(=O)c1ccc(Br)s1	18	0.6	-0.8	1.4	.	.	.	.	.	-4
O=C(NCC1CCCN(C(=O)Cc2ccccc2Cl)C1)c1ccc(F)cc1 (stereo not given)	5	0.67	0.7	1.2	i	-0.4	7	11	3.3	-3
O=C(CSc1nnc(-c2ccc(C(F)(F)F)cn2)o1)Nc1cccc(Cl)c1	18	0.65	0.7	0.1	i	.	-7	-2	0.5	.
CC(=O)c1ccc(Cl)c(Cl)c1Cl	.	0.66	0.5	3.5	i	.	4	5	0.5	1
CC(C)c1nc(SCC(=O)N2CCCCCC2)c2c(=O)n(C)c(=O)n(C)c2n1	14	0.72	-0.7	-1.5	i	-7.6	-33	-51	-8.3	10
CCN1C(=O)/C(=C/C=C2\N(CC)c3cc(S(=O)(=O)N(C)C)ccc3N2c2ccccc2)SC1=S	23	0.82	0.2	9.6	i	-18	14	5	19	48
Cc1ccc(CN(C)C(=O)c2cccc(S(=O)(=O)N3CCc4ccccc4C3)c2)o1	.	0.67	-0.1	4.7	i	1.5	.	.	.	-3
Cc1cc(C(=O)COC(=O)/C=C/c2ccc(F)cc2)c(C)n1C	.	0.7	-0.8	3.7	i	1.7	-15	-18	-1.7	-11
CCN(CC(=O)Nc1c(F)cccc1F)C(=O)c1ccc(NC(=O)CC2SC(N3CCCC3)=NC2=O)cc1 (stereo not given)	-1	0.67	-0.4	3.0	i	-0.6	15	9	0.7	4
CC(=O)Nc1ccc(/C=N/NC(=O)CNS(=O)(=O)c2ccccc2)cc1	-19	.	0.0	.	i	-9.5	5	5	-0.2	-1
Cc1ccc(C(c2sc3nc(C)nn3c2O)N2CCN(CCO)CC2)cc1 (stereo not given)	4	0.74	-0.5	5.3	i	3.7	14	-3	9.8	-5
O=C(CCC(=O)c1cccs1)c1cccs1	-5	0.68	-5.7	0.6	.	-6.8	.	.	.	3
CCc1ccc(NC(=O)Cn2ccn(-c3cccc(Cl)c3)c(=O)c2=O)cc1	1	0.74	-0.6	1.8	i	5.3	0	5	-2.9	-5
CSc1ncccc1C(=O)OCC(=O)N1CCN(S(=O)(=O)c2ccc(C)cc2C)CC1	1	0.69	0.0	-0.1	i	-41	-9	-13	1.1	-3
Cc1nc2ccccc2c(=O)n1/N=C/c1ccc(F)cc1	17	.	0.9	.	i	-0.5	6	10	1.3	1
Cn1c(SCC(=O)c2ccc3c(c2)OCCO3)nnc1C1CC1	3	0.68	-0.1	5.1	.	.	.	.	.	-1
CC1C(=O)Nc2ccccc2N1C(=O)c1cccc(C(F)(F)F)c1 (stereo not given)	7	0.66	1.0	4.0	i	-2.9	-11	-7	-1.4	-4
Cc1ccc(-c2csc(NC(=O)c3cnccn3)n2)cc1C	-3	0.66	-1.0	0.6	.	-2.1	17	8	-1.8	-1
CCn1c(SCc2ccc(C(=O)OC)o2)nnc1-c1c[nH]c2ccccc12	8	0.72	0.7	0.8	i	?	-7	-9	6.9	-1
COC(=O)c1ccccc1OC(=O)c1cc[n+]([O-])cc1	-13	0.68	0.3	0.8	i	-2.3	5	7	0.5	-6
Cc1ccc2c(c1)N(CC(=O)Nc1c(C)cccc1C)C(=O)c1cccnc1O2	-4	0.71	0.1	0.0	i	-2.4	-1	-3	-1.9	2
CC[C@@]12C(=O)N(c3ccc(OC)cc3)C(=O)N1[C@H](c1cccc(C)c1)[C@@H]1C(=O)N(Cc3ccccc3)C(=O)[C@@H]12	21	0.81	-1.0	0.6	.	.	.	.	.	8
CCN1CCN(CC(=O)N2c3ccccc3CC2C)CC1 (stereo not given)	40	0.65	1.8	-2.4	i	-0.5	9	7	4.8	-2
CCC(Sc1ncccn1)C(=O)Nc1cc(C)on1 (stereo not given)	1	0.72	0.5	-0.6	.	.	.	.	.	-2

Overlap with the part before: 2 compounds; new compounds follow.
SMILES	T cruzi repl	Ecoli growth	Bfl-1 A1 inh	UCH37 DUB inh	FGF22 binding	MLL AF4-AF9 inh	Ecoli rRNA inh	Ecoli rRNA inh OD600	Ecoli rRNA inh RFP	Beta apoptosis
CCN1CCN(CC(=O)N2c3ccccc3CC2C)CC1 (stereo not given)	40	0.65	1.8	-2.4	i	-0.5	9	7	4.8	-2
CCC(Sc1ncccn1)C(=O)Nc1cc(C)on1 (stereo not given)	1	0.72	0.5	-0.6	.	.	.	.	.	-2
Cc1ccccc1OCC(=O)Nc1ccc2c(c1)ncn2C	-1	0.64	-0.7	2.8	i	-4.5	-2	-3	-3.8	.
COc1ccccc1/C=C/c1nc(S(=O)(=O)c2ccccc2)c(N(C)C)o1	-1	0.66	-0.1	-391	i	1.9	2	-3	0.3	-12
Cc1c(C)n(CCCN(C)C)c2ncnc(Nc3ccc(F)cc3)c12	61*	0.67	1.1	9.4	i	2.6	15	16	4.3	-3
CCOC(=O)c1c(C)[nH]c(C(=O)NCc2ccccn2)c1C	-1	0.63	0.5	3.5	i	13	-3	-3	0.7	-4
CCOC(=O)C1=C[C@]2(CC)CCCN3CCc4c(n1c1ccccc41)[C@@H]32	33	.	0.2	.	i	-5.6	.	.	.	2
c1ccc(-n2ncc3c(N4CCCCC4)ncnc32)cc1	15	0.73	-6.2	4.7	i	-1.0	-25	-19	-11	-2
O=C(N1CCCCC1)N1CCN(S(=O)(=O)c2cccc([N+](=O)[O-])c2)CC1	-2	0.73	0.2	-1.8	i	3.9	-8	-3	-5.9	1
CCn1c2ccccc2c2nnc(SCC(=O)Nc3ncccn3)nc21	3	0.68	0.2	10	.	.	.	.	.	-2
COc1cc(Cl)c(C)cc1NC(=O)COC(=O)c1ccc(CN2CCCC2=O)cc1	.	0.67	-0.8	-0.1	i	-1.7	-3	2	-3.7	-6
CCOC(=O)C1C(=O)CC(C)(O)C(C(=O)OCC)C1c1ccc(OC)cc1 (stereo not given)	4	0.69	-0.6	5.5	.	.	.	.	.	-2
Cc1c(Cl)cccc1NC(=O)CSc1ccc(-c2cccnc2)nn1	4	0.67	0.4	5.7	i	-5.6	7	14	22	-5
Nc1c(C(=O)N2CCOCC2)sc2nc3c(cc12)CCCC3	-6	0.65	-7.6	-5.8	i	0.2	8	0	-0.8	2
O=C(CSC1=NS(=O)(=O)c2cc(F)ccc2N1)NCc1ccc(F)cc1	3	0.68	0.6	6.3	i	-1.2	4	9	-0.2	.
O=C1NC(c2ccccc2)=C(c2ccc3ccccc3n2)C(c2ccc(F)cc2)N1 (stereo not given)	8	0.68	-0.3	-12	.	18	-24	-33	17	3
CCCCSc1nnc(-c2ccc(NC(C)=O)cc2)n1C	0	0.65	-0.5	-0.4	.	.	.	.	.	-5
CCc1ccc(Cn2nnc(C(=O)NCc3ccccc3OC)c2N)cc1	-2	0.78	-0.5	1.5	i	2.4	4	15	1.3	-3
Cc1ccc(-n2ncc3c(=O)[nH]c(SCC(=O)N4CCCc5ccccc54)nc32)cc1	47	0.71	-0.8	0.0	.	.	.	.	.	12
CSc1ccc(/C=C(/NC(=O)c2ccco2)C(=O)N2CCOCC2)cc1	-13	0.7	-0.2	5.5	i	-1.2	12	7	1.2	-3
COCCCn1c(-c2ccsc2)nc2c1c(=O)[nH]c(=O)n2Cc1ccccc1	10	0.75	-0.9	-5.1	.	.	.	.	.	10
CCCc1c(C(=O)NNc2cc(C(F)(F)F)ccc2Cl)cnn1-c1ccccc1	34	0.71	-0.8	5.1	i	0.2	12	12	-0.7	.
OCCN(C=NC1=NN(c2cccc(C(F)(F)F)c2)CC1)CCO	15	0.67	0.7	6.4	.	.	.	.	.	4
COc1ccc(-c2nnc(OCc3nc4ccccc4n3C)c3ccccc23)cc1	-2	0.67	1.2	-1.9	.	.	.	.	.	4
COCCNc1ccc(N2C(=O)CCCC2=O)cc1[N+](=O)[O-]	-8	0.64	-0.1	5.7	i	-0.7	5	7	-5.9	-5
CCOC(=O)CN1C(=O)S/C(=C/c2ccc(O)c([N+](=O)[O-])c2)C1=O	4	0.68	-0.7	11	.	1.9	-11	-13	-1.6	16
COc1cccc(NC(=O)CN(C)S(=O)(=O)c2ccc3c(c2)NC(=O)CS3)c1	-2	0.68	0.4	4.5	i	-3.9	-2	2	0.1	-8
SMILES	T cruzi repl	Ecoli growth	Bfl-1 A1 inh	UCH37 DUB inh	FGF22 binding	MLL AF4-AF9 inh	Ecoli rRNA inh	Ecoli rRNA inh OD600	Ecoli rRNA inh RFP	Beta apoptosis
CCCNC(=O)NC(=O)COC(=O)CNS(=O)(=O)/C=C/c1ccccc1	-1	0.65	-0.1	1.6	i	-0.1	15	11	0.8	-4
Cc1cccc(CCNC(=O)CN(C)S(=O)(=O)c2ccc3c(c2)c(=O)n(C)c(=O)n3C)c1	-13	0.74	0.6	1.3	i	-24	7	11	-1.2	4
Nc1ncnc2nc(SCC(=O)Nc3cccc(C(F)(F)F)c3)[nH]c12	-7	0.68	-0.4	-0.6	i	2.3	-9	-12	1.5	-2
Fc1cccc(Cl)c1CNCc1ccccc1Cl	2	0.64	-0.5	-3.5	.	.	.	.	.	2
O=C(CCCn1cnc([N+](=O)[O-])n1)Nc1ccc(Cl)c(Cl)c1	82*	0.66	-0.7	6.8	.	.	.	.	.	0
CC(=O)C1=C(O)C(=O)N(c2cccnc2)C1c1ccc(Cl)cc1 (stereo not given)	-13	0.7	0.6	3.4	.	.	.	.	.	-2
Cc1cc(NC(=O)CSc2nc3cc(Cl)ccc3c(=O)n2CC(C)C)no1	0	0.69	?	2.6	.	.	.	.	.	-1
Cc1ccc2c(COC(=O)c3c(C)noc3C)cc(=O)oc2c1	-2	0.66	-1.0	0.6	i	-21	-5	-4	-0.9	6
CCCCCN(C(=O)CCC(=O)OC(C)C(=O)NC1CCCCC1)c1c(N)n(CCCC)c(=O)[nH]c1=O (stereo not given)	2	0.65	0.0	0.7	.	-12	0	-1	0.7	-1
CCOC(=O)N1CCN(c2c(N3CCN(c4cccc(C(F)(F)F)c4)CC3)c(=O)c2=O)CC1	10	0.68	0.1	-1.6	i	4.2	8	3	-2.6	-9
Cc1cc(=O)oc2cc(OCC(=O)N3CCC(C(N)=O)CC3)ccc12	-2	0.81	-0.8	-25	i	-2.3	.	.	.	.
CCCn1nc(C(=O)NNC(=O)CSC(C)C(=O)Nc2cc(C)on2)c2ccccc2c1=O (stereo not given)	10	0.71	0.2	1.7	i	0.7	5	5	-1.3	2
CCS(=O)(=O)N1CCC(C(=O)NCc2cc(OC)ccc2OC)CC1	-16	0.68	-0.1	-0.5	i	3.1	10	3	1.0	-2
O=C(NCCN1CCN(c2ccccc2)CC1)C1CCN(S(=O)(=O)c2cccc3nsnc23)CC1	4	0.71	2.3	1.1	i	-0.3	15	16	2.6	-8

Not all compounds are listed. The share of hits here may be higher or lower than overall.
